High-throughput results from PubChem BioAssay.
VDR inh = inhibitors of human vitamin D receptor | VDR-SRC2-3 peptide fluorescence polarization, 2 h | Potency, µM, for inactives: max response, negative = inhibition, usual class: inhibitors | AID 504847 | P11473 | 400,000 compounds, 0.93% hits; active = well fitted inhibition curve with a large enough effect; inconclusive = small, poorly fitted or top-dose-only effect, or another doubt; inactive = no such curve, though single readings can be large or run the other way; note: series mostly up to about 120 µM
Target sequence (P11473 whole entry, looked up): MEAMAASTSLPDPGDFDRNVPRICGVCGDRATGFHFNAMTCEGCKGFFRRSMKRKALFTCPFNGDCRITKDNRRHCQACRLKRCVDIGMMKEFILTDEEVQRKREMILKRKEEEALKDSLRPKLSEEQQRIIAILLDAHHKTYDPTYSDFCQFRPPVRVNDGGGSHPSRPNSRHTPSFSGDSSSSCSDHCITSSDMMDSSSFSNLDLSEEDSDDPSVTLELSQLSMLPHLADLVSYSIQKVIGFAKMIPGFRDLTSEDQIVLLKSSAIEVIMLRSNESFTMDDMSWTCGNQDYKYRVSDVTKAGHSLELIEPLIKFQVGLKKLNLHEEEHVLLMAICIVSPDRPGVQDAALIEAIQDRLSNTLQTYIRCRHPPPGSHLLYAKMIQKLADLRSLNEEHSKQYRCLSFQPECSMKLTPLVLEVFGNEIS
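The screen uses fluorescence polarization to detect compounds that interfere with recruitment of the SRC2-3 coactivator peptide to VDR; plates are read after 2 h at room temperature.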
Numbers without * were called inactive; ? = inconclusive; & = joins results of further samples. % is set by controls: 0 for no effect and ±100 for the full control effect; potency is the fitted concentration of half-maximal effect. Some of the compounds tested; rates above refer to the full screens.

canonical_smiles | VDR inh
Nc1c(C=C2C=CC(=O)C=C2)c(=O)nc2snc(SCc3ccccc3)n12 | -20.4%
COC(=O)c1ccccc1NC(=S)N(Cc1ccc2c(c1)OCO2)Cc1cc2cc(C)ccc2[nH]c1=O | -18.0%
COc1ccc(-n2cc(-c3ccccc3)c3c(=S)nc[nH]c32)cc1 | 5.1%
NC(N)=NC(=O)c1nc(Cl)c(N2CCCCCC2)nc1N | 0.2%&-2.8%&-1.5%
Cc1ccc(C)c(NC(=O)C2CCN(c3nn4c(=O)cc(C)nc4s3)CC2)c1 | 8.7%
COc1ccccc1N1CCN(S(=O)(=O)c2c(C)[nH]c(=O)[nH]c2=O)CC1 | 3.3%
COc1ccc(-c2csc(Nc3ccc(S(N)(=O)=O)cc3)n2)cc1OC | -11.0%
CN1CCN(C(=O)C2CC(c3ccc(F)cc3)=NO2)CC1 (stereo not drawn) | -12.8%
Cc1cc(-c2nn3c(-c4ccccc4)nnc3s2)c2ccccc2n1 | ?
CCSc1nc2c([nH]c3ccccc32)c(=O)n1C | -10.0%
CCOc1ccccc1NC(=O)c1ccc(CN2CCc3ccccc3C2)cc1 | -15.6%
CCCNC(=O)Cn1cnc2sc(C(=O)Nc3cc(OC)c(OC)c(OC)c3)c(C)c2c1=O | -0.1%

Reformatted with each value named: 2 of the compounds above.
Nc1c(C=C2C=CC(=O)C=C2)c(=O)nc2snc(SCc3ccccc3)n12
  VDR inh: -20.4%

COC(=O)c1ccccc1NC(=S)N(Cc1ccc2c(c1)OCO2)Cc1cc2cc(C)ccc2[nH]c1=O
  VDR inh: -18.0%

New compounds follow:
canonical_smiles | VDR inh
O=C(CN1c2cccc3cccc(c23)S1(=O)=O)N1CCOCC1 | 1.2%
COc1ccc(N2CCN(C(=O)CCc3ccccc3)CC2)cc1 | 3.8%
CCOC(=O)N1CCN(C(=O)c2ccc3nc(C)sc3c2)CC1 | -1.1%
CC(C)CN(CC(C)C)S(=O)(=O)c1cc([N+](=O)[O-])ccc1N1CCCCCC1 | -6.5%
CC1CCCCC1NS(=O)(=O)CCNC(=O)c1ccc2c(c1)OCO2 (stereo not drawn) | -4.6%
COc1ccc(C2C(C(=O)N3CCOCC3)CCC(=O)N2c2ccc(OC)cc2)cc1 (stereo not drawn) | 4.2%
Cc1ccc(-n2c(C)nc3oc4ccccc4c(=O)c3c2=O)cc1 | 11.1%
O=C(COC(=O)c1ccc(S(=O)(=O)NCc2ccco2)cc1)Nc1ncc(Cl)cc1Cl | 18.5%
CCN(CC)S(=O)(=O)c1cc(NC(=O)COC(=O)CCC(=O)c2ccc(F)cc2)ccc1C | -2.3%
O=C(c1cccs1)N1CCn2c1nc1ccccc12 | 11.8%
O=C(COC(=O)/C=C/c1ccco1)NCc1ccccc1Cl | 5.7%
Cc1ccc(S(=O)(=O)N2CCC(C(=O)NCC3CCCCC3)CC2)cc1 | -1.5%

Remaining list, next part:
canonical_smiles | VDR inh
O=C(CNC(=O)c1n[nH]c2ccccc12)Nc1ccc(F)c(F)c1F | -9.8%
CNc1sc(C(=O)c2cccs2)c(N)c1-c1nc2ccccc2s1 | 2.1%
Cc1ccc(S(=O)(=O)N2CCOCC2)cc1C(=O)Nc1cc(S(=O)(=O)N2CCCCC2)ccc1O | 3.7%
CNS(=O)(=O)c1ccc(C(=O)NCC(=O)NC(C)c2cccs2)cc1 (stereo not drawn) | 7.7%
CCc1noc(C)c1C(=O)N(C)CC(=O)Nc1cccc(OC)c1 | -1.2%
COc1ccc(OC)c(C(=O)NC(CC(N)=O)c2ccc(NCCOc3ccccc3)c([N+](=O)[O-])c2)c1 (stereo not drawn) | -9.0%
CC1CCCCC12NC(=O)N(CC(=O)Nc1ccc(S(=O)(=O)Nc3ncccn3)cc1)C2=O (stereo not drawn) | -12.4%
CN(CC(=O)Nc1ccc(Cl)c(Cl)c1)C(=O)CNC(=O)C1CCCCC1 | -5.2%
CC1CCC2(CC1)NC(=O)N(CC(=O)N1CC(C)CC(C)C1)C2=O (stereo not drawn) | -13.5%
Cc1ccc(C2NC(=O)Cc3ccccc32)cc1 (stereo not drawn) | 7.2%
CSc1ccccc1NC(=O)CSCc1ccccc1Br | -4.0%
CCc1ccccc1OCC(=O)Nc1ccc(F)c(S(=O)(=O)N2CCOCC2)c1 | -12.5%

Following part
canonical_smiles | VDR inh
CCOC(=O)C1CCCN(c2c(C(=O)c3ccccc3)cnc3ccccc23)C1 (stereo not drawn) | -9.4%
CN(C)c1cccc(-c2csc(N3CCC(C(N)=O)CC3)n2)c1 | -13.3%
CN(CC(=O)Nc1ccc(OC(F)(F)F)cc1)C(=O)c1ccc(N2CCCC2=O)cc1 | -0.8%
CC(C)C(=O)NNC(=O)CSc1ncnc2c1cnn2-c1ccccc1Cl | 14.0%
O=C(COc1cccnc1[N+](=O)[O-])Nc1cccc(S(=O)(=O)N2CCOCC2)c1 | 6.4%
COc1cc(OC)cc(-c2c(-c3cccs3)c3cc(-c4ccc5[nH]ccc5c4)ccc3n2C)c1 | 3.8%
COc1cccc(N2CCN(C(=O)c3ccc(C)c(NC(=O)c4nsc5ccccc45)c3)CC2)c1 | 10.1%
O=C1/C(=C\Nc2ccc(Cl)cc2)CCN1c1ncccn1 | 1.0%
CC(C)CNC(C(=O)Nc1ccc([N+](=O)[O-])cc1Br)c1ccccc1 (stereo not drawn) | 2.6%
CC(CN1CCN(C)CC1)OC(=O)c1ccc(Cl)cc1Cl (stereo not drawn) | 18.2%
NS(=O)(=O)c1ccc(NC(=S)NNC(=O)c2ccc(Br)o2)cc1 | 6.7%
Cc1nc([N+](=O)[O-])cn1C(C)C | 15.5%

Further results follow.
canonical_smiles | VDR inh
CCn1cc(C(=O)NCc2ccccn2)c(=O)c2cc(F)c(N3CCN(C)CC3)cc21 | 8.6%
CCOC(=O)C1=C(C)N(Cc2ccc(C(=O)O)cc2)C(=O)NC1c1ccc([N+](=O)[O-])cc1 (stereo not drawn) | -0.3%
COc1ccc(Cl)cc1NC(=O)CCn1c(=O)oc2ccccc21 | -2.5%&-2.5%
CCOC(=O)CN/C=C(\C#N)c1ccc(F)cc1 | 3.2%
Cc1ccc(SCC(=O)c2sc(-c3ccccc3)nc2C)cc1 | 5.2%
COc1ccc(S(=O)(=O)N2CCC(c3nnnn3-c3ccccc3)CC2)cc1OC | 0.6%
COc1ccc(-c2nc(S(=O)(=O)c3ccccc3)c(N3CCOCC3)o2)cc1 | -18.2%
Cc1ccc(-c2nc(CS(=O)(=O)CC(=O)N3CCN(c4cccc(C)c4C)CC3)c(C)o2)cc1 | -22.1%
O=C1CCC/C(=N/NC(=O)c2cc(NS(=O)(=O)c3cccs3)cc(NS(=O)(=O)c3cccs3)c2)C1 | -14.5%
CC(=O)C1=NN(c2ccccc2)C2(S1)S/C(=C\c1ccccc1)C(=O)N2c1ccccc1 (stereo not drawn) | 1.6%
CC(C)(C)c1cc(C(=O)NCCN2CCCC2)cc(C(C)(C)C)c1 | -0.6%
Cc1ccc(NC(=O)CCn2nc(C)cc2C)cc1 | 17.2%

Later entries
canonical_smiles | VDR inh
CCOC(=O)CSC1=C(C#N)C(c2ccc(Cl)cc2)C(C(=O)OC)C(=O)N1 (stereo not drawn) | -8.1%
CCN(CC)S(=O)(=O)c1ccc(N2CCOCC2)c(NC(=O)c2ccc(=O)[nH]c2)c1 | 3.7%
CN(C(=O)NC(=O)C1=C(N2CCOCC2)/C(=C/c2ccccc2)CC1)S(C)(=O)=O | 8.2%
CCCCOc1ccc(/C(O)=C(\C#N)c2nc3ccccc3[nH]2)cc1 | 1.0%
CC(C)NCC(O)COCCOc1ccc(C(C)(C)C)cc1 (stereo not drawn) | -25.5%
CCC(CC)C(=O)Nc1nc(-c2ccc3c(c2)CCN3C(=O)C2CC2)c(C)s1 | 0.9%
Cc1oc(-c2ccc(C(=O)NCc3cccc(F)c3)cc2)nc1COc1ccccc1 | 5.4%
COc1ccc(CCN2CCCn3c2nc2c3c(=O)n(CC(N)=O)c(=O)n2C)cc1OC | 0.5%
CCCN1C2=C(C(=O)CC(C)(C)C2)C(c2ccc(F)cc2)C2=C1c1ccccc1C2=O (stereo not drawn) | -14.1%
Fc1ccccc1-c1nnc2c3ccccc3nc(N3CCOCC3)n12 | -1.9%
O=C(COc1ccc(Cl)cc1)Nc1cccc(-c2ccc(N3CCOCC3)nn2)c1 | -20.8%
Nc1nc(/C=C/c2ccc(F)cc2)nc(-c2ccccc2O)n1 | -0.1%

Next section
canonical_smiles | VDR inh
CC1CCCCN1C(=O)CSc1nnc(-c2ccccc2F)o1 (stereo not drawn) | -10.0%
O=c1[nH]c(=S)c2[nH]cnc2[nH]1 | -3.7%
CC(=O)c1ccc(NC(=S)N2CCC(Cc3ccccc3)CC2)cc1 | -10.4%
COC(=O)NC(c1ccc2c(c1)OCO2)C(C(=O)OC)C(=O)OC (stereo not drawn) | 1.3%
O=C(c1ccc(F)cc1)N1CCC(C(=O)N2CCN(Cc3ccc4c(c3)OCO4)CC2)CC1 | -2.3%
CC1(C)C(=O)Nc2ccccc2N1C(=O)COC(=O)CSc1ccc(F)cc1 | 15.2%
CCc1ccc(NC(=O)c2cnn(-c3ccccc3)c2C2CCNCC2)cc1 | 6.4%
Cc1ccc(N(CC(=O)NCCSc2nc3ccccc3s2)S(=O)(=O)c2ccccc2)c(C)c1 | -19.1%
O=c1ccsc2ccccc12 | -6.6%
Cn1cc(Br)c(C(=O)NN2C(=O)C3C4C=CC(C5CC45)C3C2=O)n1 (stereo not drawn) | 4.5%
CCCC(=O)Nc1cc2nn(-c3ccccc3)nc2cc1C | 0.9%
N/C(=N\OC(=O)c1cccc(Br)c1)c1ccccc1 | 5.1%

The results go on:
canonical_smiles | VDR inh
CCn1ncc(NC(=S)NCCc2ccc(OC)c(OC)c2)c1C(N)=O | -4.0%
CC(CCc1ccccc1)NC(=O)C(Cc1ccccc1)NC(N)=O (stereo not drawn) | -7.4%
COC(=O)c1cc2sc(C)cc2n1CC(=O)Nc1ccc(C)c(C)c1 | -19.5%
CCC(C)NC(=O)c1ccc(N2CC3CC(C2)c2cccc(=O)n2C3)c(NC(=O)c2ccc(Br)o2)c1 (stereo not drawn) | -14.1%
COC(=O)C1CCN(C(c2cccs2)c2sc3nc(C)nn3c2O)CC1 (stereo not drawn) | -22.3%
CCOC(=O)C1CCCN(S(=O)(=O)c2ccc3c(c2)CC(C)N3C(=O)C2CC2)C1 (stereo not drawn) | 17.7%
O=C(Oc1ccccc1)Oc1ccc2c(c1)oc(=O)c1ccccc12 | 3.0%
O=C1CC(NS(=O)(=O)c2cc(F)ccc2F)CN1c1cccc(F)c1 (stereo not drawn) | 3.7%
COc1cc(-c2nn3c(COc4ccccc4)nnc3s2)cc(OC)c1OC | ?
Cc1cccc(NC(=O)CCNS(=O)(=O)c2cccc3nonc23)c1 | 12.0%&-10.8%
COc1cc(CN2CCC(C(=O)N3CCN(c4ccccc4F)CC3)CC2)cc(OC)c1OC | 4.1%
Cc1ccccc1CCNC(=O)c1ccc(Cn2c(=O)c3cccn3c3cccnc32)cc1 | 22.8%

Copied from the results shown for reference:
canonical_smiles | VDR inh
Nc1c(C=C2C=CC(=O)C=C2)c(=O)nc2snc(SCc3ccccc3)n12 | -20.4%
COC(=O)c1ccccc1NC(=S)N(Cc1ccc2c(c1)OCO2)Cc1cc2cc(C)ccc2[nH]c1=O | -18.0%

(list continues)
canonical_smiles | VDR inh
Cc1ccc(Cl)cc1NC(=O)Cn1c(SCC(=O)NCc2ccccc2)nc2ccccc21 | 2.6%
O=[N+]([O-])c1ccccc1S(=O)(=O)Nc1cccc(S(=O)(=O)N2CCCC2)c1 | 28.8%
CCS(=O)(=O)N1CCCC(C(=O)NCCCOC(C)C)C1 (stereo not drawn) | -1.1%
CCn1ccc(C(=O)Nc2sc3c(c2C(=O)OC)CCC3)n1 | 10.5%
Cc1ccccc1CSc1nccn1-c1ccccc1 | -5.5%
O=C(NCCc1ccccc1)c1ccc2nc(N3CCCCC3)sc2c1 | 1.1%
Cc1ccc(C)c(OCC(=O)O/N=C(\N)c2ccccn2)c1 | 0.0%
CCOC(=O)c1cc2sc(C)cc2n1CC(=O)NCCc1ccccc1 | -5.6%
O=C(Nc1ccc(C(=O)N2CCC(N3CCCC3)CC2)cc1)c1ccc(Br)o1 | -6.1%
COc1ccc(N(CC(=O)Nc2ccc(Cl)cc2C)S(=O)(=O)c2ccccc2)c(OC)c1 | -4.9%
CC1CN(C(=O)CN(C)S(=O)(=O)c2ccc3ccccc3c2)CC(C)O1 (stereo not drawn) | -4.8%
CC(C)(C)n1nnnc1C(c1cccnc1)N1CCN(c2ccccc2F)CC1 (stereo not drawn) | -2.1%

Continued:
canonical_smiles | VDR inh
COc1ccc(-n2nc(C(=O)NCC(=O)N3CCC(C(N)=O)CC3)c3ccccc3c2=O)cc1OC | 7.7%
COC(=O)c1cc(OC)c(OC)cc1NC(=O)CN1C(=O)c2ccccc2C1=O | -4.9%
COc1cccc2c(C)nc(Nc3nc(CSc4nnc(C)s4)cc(=O)[nH]3)nc12 | 79.4µM*
C/C(N)=C(/C#N)C(=O)CSc1nc2ccccc2c(=O)n1-c1ccccc1C | 2.2%
CC(=O)NC12CC3CC(C1)CC(C(=O)Nc1cccc(S(=O)(=O)N4CCCCCC4)c1)(C3)C2 | -13.3%
CC(=O)OCc1c(-c2ccccc2)c2cc([N+](=O)[O-])ccc2n1C | 6.0%
CC(C(=O)NCc1ccco1)n1cc(C(=O)c2ccco2)c2ccccc21 (stereo not drawn) | -1.2%
O=C(Nc1ccc(Cl)cc1F)C1CCCN(C2=NS(=O)(=O)c3ccccc32)C1 (stereo not drawn) | -5.1%
Cc1noc(C)c1COc1ccccc1C(=O)Nc1ccc(C(N)=O)cc1 | 21.4%
